HNF4A DNA FP – change in binding of human HNF4 alpha to DNA; hit rate 0.3% among 360,000; AID 1224865; activity change, % at 10 µM; P41235; HNF4a-FITC DNA binding, fluorescence polarization, 1 h; in the data active means activity change above about 30%, passing the limit was not always enough;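 further: controls were the assay level and a saturating level of protein; the project sought stronger binding though the title names inhibitors; some compounds called inactive have numbers as strong as hits; positive values seem to mean higher polarization but the record does not say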
Target sequence (P41235 whole entry, looked up): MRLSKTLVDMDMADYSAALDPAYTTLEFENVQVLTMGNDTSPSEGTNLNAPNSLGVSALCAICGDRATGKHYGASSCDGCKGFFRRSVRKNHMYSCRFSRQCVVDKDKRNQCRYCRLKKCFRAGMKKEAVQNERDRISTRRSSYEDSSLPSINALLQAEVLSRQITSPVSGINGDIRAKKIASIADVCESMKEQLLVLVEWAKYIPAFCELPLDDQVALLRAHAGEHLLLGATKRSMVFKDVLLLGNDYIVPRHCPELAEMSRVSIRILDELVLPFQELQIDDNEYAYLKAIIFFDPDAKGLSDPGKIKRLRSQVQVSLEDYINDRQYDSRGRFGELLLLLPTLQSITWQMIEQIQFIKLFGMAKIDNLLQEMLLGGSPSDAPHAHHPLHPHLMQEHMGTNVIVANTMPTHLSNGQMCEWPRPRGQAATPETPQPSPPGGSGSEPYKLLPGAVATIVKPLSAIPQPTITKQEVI
* = called active by the depositor. This is a subset; rates above refer to the full screens.

| smiles | HNF4A DNA FP |
| --- | --- |
| COc1ccc(NC(=O)C2Cc3c(-c4cccc(F)c4)ccnc3O2)cc1OC (stereo unspecified) | -3.1 |
| CC1(C(=O)NCc2ccccn2)CCN1C(=O)Cc1ccc(Cl)cc1Cl (stereo unspecified) | -1.4 |
| COc1ccc(C(O)c2ncc(-c3ccccc3OC)[nH]2)cc1F (stereo unspecified) | 4.5 |
| OCC1OC(n2cnc3ncccc32)C(O)C1O (stereo unspecified) | 1.7 |
| CCN(CC)C(=O)c1cccc(-c2csc(C(C)(NC(C)=O)c3ccc(OC)cc3)n2)c1 (stereo unspecified) | 0.1 |
| Cc1ccccc1CN1CC2=C(CCN(Cc3ccccc3)C2=O)N2CCN=C12 | 7.5 |
| Cc1ccc(F)cc1-c1nc(NC(C)C)nc2cc(-c3ccccc3)sc12 | 6.0 |
| COc1ccc(CC(N)c2csc(NC(=O)Nc3ccccc3C(C)(C)C)n2)cc1 (stereo unspecified) | 0.4 |
| CCCCC(=O)N(C)c1c(CC)nc2c(OCC(=O)N3CCOCC3)cccn12 | 9.2 |
| CCC(=O)N1CCC1(C)C(=O)Nc1ccccc1 (stereo unspecified) | 1.7 |
| CCCS(=O)(=O)NC(=O)C1(C)CCN(C(=O)c2cc(C(C)(C)C)nn2C)C1 (stereo unspecified) | 1.1 |
| CCc1nc2ccc(C(=O)Nc3ccc4c(c3)OCC(=O)N4)cn2c1N(C)C(=O)C1CCCCC1 | 1.0 |
| CCCCC[C@H]1CCCCC[C@@H](O)C[C@H](O)[C@H](O)/C=C/C(=O)O1 | 4.1 |
| COc1ccc(-c2ccc(C(=O)NCCN(C)C)c3occc23)c(C)c1 | 3.6 |
| COC(=O)[C@]12CCCCC=C1N(CCC1=CCCCC1)C(=O)[C@H](CC(=O)NCCc1ccccc1OC)C2 | 1.4 |
| COc1cc(-c2cc(NC=O)c3ncc(-c4ccc(C(C)=O)cc4)n3c2)ccc1O | -1.3 |
| CC(C)C(=O)N1CCCC1(C)C(=O)Nc1cccc(Oc2ccccc2)c1 (stereo unspecified) | 2.3 |
| O=C1NC[C@H](CCCCN2C[C@H](Cc3ccccc3)N(Cc3ccccc3)C(=O)C2=O)N(CC2CCCCC2)C1=O | -0.2 |
| O=C(NC1CCCCC1)C(C1CC1)n1c(=O)c(-c2ccccc2)nc2ccccc21 (stereo unspecified) | 2.8 |
| O=C1NC[C@H](CCCCN2C[C@H](Cc3ccc(O)cc3)N(CC3CCCCC3)C(=O)C2=O)N(CCC2CCCCC2)C1=O | 1.7 |
| CCOC1=C2CN(S(=O)(=O)c3ccc(C)cc3)[C@H](c3cccc(Cl)c3)C[C@@H]2N(S(=O)(=O)c2ccccc2[N+](=O)[O-])[C@H](c2ccccc2)C1 | 0.9 |
| CCOC(=O)[C@]12CCC=C1N(Cc1ccco1)C(=O)[C@H](CC(=O)NCc1cccc(C(F)(F)F)c1)C2 | 2.6 |
| COc1ccc(-c2c(Sc3ccccc3)c3cc(-c4ccc5c(c4)OCO5)ccc3n2C)cc1 | 9.9 |
| CC(O)(c1cccnc1)c1nc(-c2cccc(C#N)c2)cs1 (stereo unspecified) | 0.2 |
| Nc1[nH]c(C(=O)c2ccccc2)c(-c2ccc(Br)cc2)c1C(=O)NC1CCCCC1 | -0.1 |
| COc1cccc(CN2CCC2(C)C(=O)Nc2cccc(Oc3ccccc3)c2)c1OC (stereo unspecified) | -3.2 |
| CC1(C(=O)NS(=O)(=O)C2CC2)CCN(C(=O)c2ccc3c(c2)OCO3)C1 (stereo unspecified) | -0.6 |
| O=C(NCc1ccccc1)C(c1ccco1)N1CCN(C(=O)C2CCCO2)CC1 (stereo unspecified) | -0.5 |
| C[C@@H]1COc2cc(N(C)CCO)ccc2S(=O)(=O)N1 | 0.8 |
| CC(C)c1ccc(NC(=O)C2(C)Cc3c(-c4cccc(C(F)(F)F)c4)ccnc3O2)cc1 (stereo unspecified) | 3.0 |
| C#CCNC(=O)C[C@@H]1C[C@@]2(C(=O)OCC)CCCC=C2N(Cc2ccc(Cl)cc2Cl)C1=O | 0.6 |
| C=CCC[C@@H](CCCCC)OC(=O)/C=C/[C@@H](O)[C@H](O)C[C@H](O)CC=C | 1.5 |
| CCc1nc2ccc(C(=O)NCCCn3ccnc3)cn2c1N(C)Cc1nccs1 | -2.7 |
| Brc1cccc(-c2nc3c4ccccc4ccn3c2CC2CCCCC2)c1 | 8.1 |
| COc1cccc(C(c2nnnn2C(C)(C)C)N2CCN(C/C=C/c3ccccc3)CC2)c1OC (stereo unspecified) | -3.9 |
| CCC(OC(=O)c1ccc(S(C)(=O)=O)c([N+](=O)[O-])c1)C(=O)NC1C2CC3CC(C2)CC1C3 (stereo unspecified) | -2.0 |
| O=C(Nc1ccccc1)c1cc(C2CCCCN2C(=O)CCCc2ccccc2)on1 (stereo unspecified) | 2.1 |
| NC(=O)c1cccc(-c2cnc3c(Nc4cccc(OC(F)(F)C(F)F)c4)nccn23)c1 | 5.4 |
| CC(C)CCN1CCC(CN2C(=O)C(=O)NC[C@@H]2CC(C)C)CC1 | -4.8 |
| COc1ccc(C(C)(O)c2nc(-c3ccncc3)cs2)cc1 (stereo unspecified) | -0.7 |

Shown as labelled records: 4 of the compounds above.
C[C@@H]1COc2cc(N(C)CCO)ccc2S(=O)(=O)N1
- HNF4A DNA FP: 0.8

Nc1[nH]c(C(=O)c2ccccc2)c(-c2ccc(Br)cc2)c1C(=O)NC1CCCCC1
- HNF4A DNA FP: -0.1

NC(=O)c1cccc(-c2cnc3c(Nc4cccc(OC(F)(F)C(F)F)c4)nccn23)c1
- HNF4A DNA FP: 5.4

CC(C)c1ccc(NC(=O)C2(C)Cc3c(-c4cccc(C(F)(F)F)c4)ccnc3O2)cc1 (stereo unspecified)
- HNF4A DNA FP: 3.0

Next part
| smiles | HNF4A DNA FP |
| --- | --- |
| COCCNc1nnc(SCC(=O)c2cc(C)n(C3CC3)c2C)s1 | 4.9 |
| CCc1nc2c(OCc3cc(Cl)cc(Cl)c3)cccn2c1N(C)C(=O)c1ccc(C)cc1 | 1.2 |
| CSCc1cc(C(=O)NCCN2CCOCC2)c(N)s1 | 14.8 |
| CC(=O)c1ccc(Nc2nc(C(N)c3ccccc3Cl)cs2)cc1 (stereo unspecified) | -0.6 |
| CCOC(=O)[C@]12CCCC=C1N(CCC1=CCCCC1)C(=O)[C@H](CC(=O)N1CCOCC1)C2 | 1.0 |
| O=C(N[C@@H]1CC[C@@H](CCn2cc(-c3ccccc3)nn2)O[C@@H]1CO)c1cnccn1 | 2.0 |
| CNc1cncc(-c2ccc(OC)c(OC)c2)n1 | 0.9 |
| CC(C)n1nnnc1C1c2ccccc2C(=O)N1CCOc1ccccc1 (stereo unspecified) | 1.9 |
| COc1ccc(C2C=CC(=O)CC2)c(OC)c1 (stereo unspecified) | 2.4 |
| CC1=C(C(=O)N(C(C)C)C(C)C)CC(CC(=O)NCc2cccs2)C(=O)N1Cc1ccc(F)cc1 (stereo unspecified) | 5.0 |
| NC(Cc1ccc(C(F)(F)F)cc1)c1csc(NC(=O)Nc2ccccc2Cc2ccccc2)n1 (stereo unspecified) | 2.2 |
| COc1ccc(-c2noc([C@@H]3O[C@H](CO)[C@H](O)[C@H](O)[C@H]3O)n2)cc1OC | -0.5 |
| CCCNC(=O)C1(C)CCCN(C(=O)Cc2cccc(OC)c2)C1 (stereo unspecified) | 0.9 |
| CCN(C)C1CN(Cc2cn(Cc3ccc(Cl)cc3)nn2)S(=O)(=O)C1 (stereo unspecified) | 4.7 |
| c1cc2cc(CNc3nc(NCC4CC4)nc4ccsc34)ccc2o1 | 1.5 |
| COc1ccc(Cl)cc1-c1cc(C(=O)NCc2ccco2)[nH]n1 | -0.5 |
| O=C(Nc1ccc2c(c1)OCCO2)C(c1ccccc1F)n1c(=O)c(-c2ccco2)nc2ccccc21 (stereo unspecified) | 19.2 |
| COc1ccccc1CCn1cnc(-c2ccc(OC)c(OC)c2)c1C(C)C | -2.3 |
| CN(C)c1ncnc2c1ncn2[C@H]1CN(Cc2ccc3c(c2)OCO3)C[C@@H](CO)O1 | -0.1 |
| CC(C)C(N)c1csc(Nc2ccc(C(=O)NCCCO)cn2)n1 (stereo unspecified) | -1.0 |
| Cc1ccc(-c2ccc(CN3C(C(C)C)C(=O)N(Cc4cn(CCC5OCCO5)nn4)CCS3(=O)=O)cc2)c(C)c1 (stereo unspecified) | 0.6 |
| CNc1cncc(-c2ccoc2)n1 | -1.1 |
| COc1ccc(OC)c(S(=O)(=O)NC(=O)C2(C)CCN2C(=O)CC2CCCC2)c1 (stereo unspecified) | -2.2 |
| NC(Cc1ccc(F)cc1)c1csc(Nc2nncc3ccccc23)n1 (stereo unspecified) | 3.5 |
| CCOC(=O)C1=CCN(S(=O)(=O)c2ccccc2Br)C1c1ccc(Br)cc1 (stereo unspecified) | -1.7 |
| COc1ccc(OC)c(NC(=O)Nc2nnc([C@@H]3O[C@H](CO)[C@@H](O)[C@H]3O)s2)c1 | 0.8 |
| CCOC(=O)[C@]12CCC=C1N(Cc1cccc3ccccc13)C(=O)[C@H](CC(=O)NCCCCc1ccccc1)C2 | 1.5 |
| COc1cccc(C(O)c2nc(-c3ccc(N(C)C)cc3)cs2)c1 (stereo unspecified) | -0.7 |
| CN1CCN(C2CN(Cc3cn(Cc4ccccc4F)nn3)S(=O)(=O)C2)CC1 (stereo unspecified) | -1.5 |
| Cc1c(C(=O)N2CCCC2(C)C(=O)NCC(C)C)oc2ccccc12 (stereo unspecified) | -0.9 |
| CN(C)CCN(C)C1CN(Cc2ccc(F)cc2)S(=O)(=O)C1 (stereo unspecified) | 1.5 |
| NC(c1csc(Nc2cc(Oc3ccccc3)ncn2)n1)c1ccccc1Cl (stereo unspecified) | 4.6 |
| COC1=C(OC)C(=O)C(CCCCCCCCCCO)=C(C)C1=O | -0.7 |
| Cc1ccccc1SCC(=O)NCC1(N2CCCCC2)CCCCC1 | -0.6 |
| COc1ccc(CNC(=O)O[C@@H]2C[C@H]3C(=O)N(c4ccccc4)C(=O)[C@H]3[C@@]3(CN(S(=O)(=O)c4ccc(C)cc4)C[C@H]3C)[C@@H]2O)cc1OC | 0.0 |
| COC(=O)CCCn1cc(CN2CC(N3CCN(Cc4cccc(C)c4)CC3)CS2(=O)=O)nn1 (stereo unspecified) | 5.8 |
| CCCN(C)C1CN(Cc2cn(Cc3ccccc3)nn2)S(=O)(=O)C1 (stereo unspecified) | 1.6 |
| O=C(C[C@@H]1C=C[C@@H](NC(=O)Nc2cccc(F)c2)[C@@H](CO)O1)NCC1CCCCC1 | 1.8 |
| COc1ccc([C@H]2CC(=O)C[C@@H](CCn3cc(-c4ccc(F)cc4)nn3)O2)cc1 | 2.8 |
| Cc1ccccc1S(=O)(=O)NCC[C@@H]1CC[C@@H](NC(=O)C2CCCC2)[C@@H](CO)O1 | 3.2 |

In another format: results already given.
> CCc1nc2ccc(C(=O)NCCCn3ccnc3)cn2c1N(C)Cc1nccs1
- HNF4A DNA FP = -2.7
> Brc1cccc(-c2nc3c4ccccc4ccn3c2CC2CCCCC2)c1
- HNF4A DNA FP = 8.1
> COc1cccc(C(c2nnnn2C(C)(C)C)N2CCN(C/C=C/c3ccccc3)CC2)c1OC (stereo unspecified)
- HNF4A DNA FP = -3.9

Continuation.
| smiles | HNF4A DNA FP |
| --- | --- |
| COc1ccc(C(=O)C[C@@H]2OC3CCCCC3N2S(=O)(=O)c2ccc(C)cc2)cc1OC (stereo partly specified) | -3.6 |
| CC1(C(=O)NS(=O)(=O)Cc2ccccc2C(F)(F)F)CCN1C(=O)c1ccco1 (stereo unspecified) | -2.5 |
| CCCCN(CCCC)Cc1cc(=O)oc2cc(OC)ccc12 | 2.4 |
| CCCCCCCCN1C(=O)[C@H](CC(=O)N2CCOCC2)C[C@@]2(C(=O)OCC)CCCC=C12 | -3.2 |
| CCc1nc2c(OCc3ccc(C#N)cc3)cccn2c1N(C)C(=O)c1cccs1 | 3.5 |
| COc1ccc(C(O)c2nc(-c3cc(F)cc(F)c3)cs2)cc1 (stereo unspecified) | -2.3 |
| Cc1[nH]ncc1Nc1ccccc1C(C)C | 0.0 |
| CC(=O)c1cccc(NC(=O)c2cccc3c(-c4cccc(C(N)=O)c4)coc23)c1 | 1.0 |
| CC(O)(C(=O)c1ccccc1)c1ccccc1 (stereo unspecified) | 5.7 |
| Cc1cccc(C)c1NC(=O)C(C1CC1)n1c(-c2ccc(C(F)(F)F)cc2)nc2ccccc21 (stereo unspecified) | 1.4 |
| CC(=O)OC[C@]12CC[C@H]3[C@@](C)(CC[C@H]4C(C)(C)CCC[C@]34C)[C@@H]1CC(C1=CC(=O)OC1O)O2 (stereo partly specified) | -18.6 |
| Cn1c(=O)c2cc(NC(=S)NC3CC3)ccc2n1C/C=C/c1ccccc1 | 0.0 |
| N#CCCN(C(=O)COC(=O)c1ccc(Cl)nc1)c1ccc2c(c1)OCCO2 | 1.0 |
| CCCc1nc2ccc(C(=O)OC)cn2c1Cc1ccc(C)cc1 | 6.0 |
| CN1CCCC1(C)C(=O)Nc1ccc(-n2cccc2)cc1 (stereo unspecified) | 2.6 |
| CC(=O)c1cccc(-c2ccnc3c2CC(C(=O)NCc2ccc(F)c(F)c2)O3)c1 (stereo unspecified) | -3.3 |
| O[C@@H]1CN(CC2CCCCC2)[C@@H](c2ccccc2)C[C@H]1n1cc(C2CC2)nn1 | -7.4 |
| CCCS(=O)(=O)NC(=O)C1(C)CCCN(C(=O)c2ccc3ccccc3n2)C1 (stereo unspecified) | 0.0 |
| CC=CCn1c(SCCCc2ccccc2)nc2c1c(=O)[nH]c(=O)n2C | -3.2 |
| CCOc1cc(/C=N/NC(=O)c2ccncc2)cc(Br)c1O | 0.7 |
| COCCNc1nc(Oc2cccc(NC(C)=O)c2)c2sccc2n1 | 3.9 |
| CC1(C(=O)Nc2cccc3cccnc23)CCN1Cc1ccc(-c2ccccc2)o1 (stereo unspecified) | 8.9 |
| CCCS(=O)(=O)NC(=O)C1(C)CCCN(C(=O)c2nc(C)oc2C)C1 (stereo unspecified) | 1.6 |
| CC(CNC(=O)CCCn1c(=O)c2cccn2c2cccnc21)c1ccccc1 (stereo unspecified) | -2.7 |
| CN(CCc1ccccc1)c1cc2c(c3c1ccn3C)C1CCC2O1 (stereo unspecified) | 4.4 |
| CCC(CC)C(=O)N(C)c1c(C)nc2c(OCc3cccc(OC)c3)cccn12 | -2.7 |
| FC(F)(F)c1cccc(-c2cncc(N3CCN(CCN4CCCC4)CC3)n2)c1 | 5.5 |

High-throughput results deposited in PubChem by Sanford-Burnham Center for Chemical Genomics.
